# Kir21 inh = blocks the mouse Kir2.1 inward-rectifier potassium channel; 310,000 tested, 0.85% active; AID 1672; P35561; HEK293-Kir2.1, FluxOR thallium flux fluorescence; hits give low values; B-score at 10 µM;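 active means fluorescence ratio B-score at or below minus 3 SD of library scores, with starting-brightness B-score within 2 SD, cut at about -4.2 in these data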;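 further: channel flux triggered by added potassium and thallium sulfate stimulus; B-score of peak minus minimum fluorescence over baseline after thallium stimulus; more negative B-score means stronger Kir2.1 block with less thallium influx; some compounds called inactive have numbers as strong as hits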
# Target sequence (P35561 whole entry, looked up): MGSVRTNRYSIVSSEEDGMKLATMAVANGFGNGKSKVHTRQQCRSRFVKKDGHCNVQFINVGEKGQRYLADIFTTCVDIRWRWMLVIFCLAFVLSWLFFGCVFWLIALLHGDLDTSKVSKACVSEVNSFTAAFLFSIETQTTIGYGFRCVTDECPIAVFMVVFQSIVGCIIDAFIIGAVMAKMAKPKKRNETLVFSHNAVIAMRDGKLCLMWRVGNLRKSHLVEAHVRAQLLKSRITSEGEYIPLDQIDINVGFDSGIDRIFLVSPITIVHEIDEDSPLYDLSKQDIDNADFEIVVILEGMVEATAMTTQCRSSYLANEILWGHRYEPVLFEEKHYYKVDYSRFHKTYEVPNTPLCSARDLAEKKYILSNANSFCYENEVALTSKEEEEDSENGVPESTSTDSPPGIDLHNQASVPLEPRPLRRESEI
# * hit, by the source's call.
SMILES	Kir21 inh
CCOc1ccccc1NC1c2ccccc2C(=O)N1c1cccnc1 (stereo not drawn)	-1.64
Cc1onc(-c2ccccc2Cl)c1C(=O)NCc1nc(-c2ccccc2)no1	0.45
COC(=O)c1c(NC(=O)/C=C/c2ccc3c(c2)OCO3)sc(C)c1C	0.81
CCC(C)c1ccccc1NC(=O)c1cccnc1 (stereo not drawn)	0
Fc1ccc(NC(=S)N2CCCC2)cc1Cl	1.62
Cc1ccc(N2C(=O)c3ccccc3C2=O)cc1	1.68
Cc1cc(NC(=O)CSCC(=O)Nc2cc(C(F)(F)F)ccc2N2CCCC2)no1	-1.74
COc1ccc(NC(=O)CSc2nc(=O)n(CCN3CCOCC3)c3c2CCC3)cc1	-0.57
COc1cc2c3nnc(-c4ccc(F)cc4)c-3cn(Cc3ccc(F)cc3)c2cc1OC	-1.23
CCCCn1c(=S)[nH]c2ncccc2c1=O	-0.91
CC1(C)NC(=O)N(c2ccccc2Cl)C1(C)NO (stereo not drawn)	0.75
O=C(NCCO)/C(=C/c1ccc2c(c1)OCO2)NC(=O)c1ccc(Br)cc1	-1.12
O=C(NCCCCCCNC(=O)N1CCCCCC1)N1CCCCCC1	-1.97
O=C(NCCc1c[nH]c2ccccc12)OCCCCOC(=O)NCCc1c[nH]c2ccccc12	-0.35
COc1ccccc1CC1CC(=O)N(c2ccccc2)C1=O (stereo not drawn)	-1.36
Cc1ccc(C)c(-n2cc(CNCCCn3cccn3)c(-c3ccccc3)n2)c1	-0.83
O=S(=O)(c1ccccc1F)N1CCN(CC(O)c2ccccc2)CC1 (stereo not drawn)	2.28
CC1=CC(C)(C)Nc2ccc(OC(=O)C(C)N3C(=O)c4ccccc4C3=O)cc21 (stereo not drawn)	0.11
CCN(CC)CC(=O)c1c(N)n(Cc2ccccc2)c(=O)n(C)c1=O	2.55
COc1ccccc1C(=O)N1CCC(C(=O)c2ccc(F)cc2)CC1	0.27
Cc1cccc(C(=O)NCC(=O)N2CCN(S(=O)(=O)c3cc(C)ccc3C)CC2)c1	-1.74
CC(/C=N/Nc1nc(C)cc(C)n1)=C\c1ccc(C(C)C)cc1	-0.27
COC(=O)Nc1sc(C)nc1-c1ccccc1	0.18
CCN(C(=O)c1cccs1)c1nc(-c2ccc(OC)cc2)cs1	-0.45
O=S(=O)(Nc1cccc2cccnc12)c1ccccc1	-0.6
CCc1cc(=O)oc2cc(C)cc(OC(C)C(=O)NCCCn3ccnc3)c12 (stereo not drawn)	-1.77
O=C(NCc1ccc(Cl)cc1)C(=O)Nc1nccs1	0.07
COc1cccc(/C=N/NC(=O)c2cccc([N+](=O)[O-])c2)c1OS(=O)(=O)c1ccc(C)cc1	2.54
O=c1[nH]c2cc3c(cc2cc1CN(Cc1cccnc1)C(=S)NCc1ccco1)OCCO3	0.44
CCOC(=O)c1cnc2cc(-c3ccc(Br)cc3)nn2c1C	1.07

# Two entries from above, with each value named:
> CC(/C=N/Nc1nc(C)cc(C)n1)=C\c1ccc(C(C)C)cc1
  Kir21 inh: -0.27
> CCCCn1c(=S)[nH]c2ncccc2c1=O
  Kir21 inh: -0.91

# The list continues:
SMILES	Kir21 inh
CCOC(=O)CC(=O)COc1nc2cc3c(nc2o1)CCCC3	0.11
Cc1ccc(Nc2nc(NCCO)nc3c2cnn3C)cc1Cl	-0.98
CCc1ccc(NC(=O)C2CCN(C(=O)[C@@H]3Cc4ccccc4CN3)CC2)cc1	-0.39
CC1(C)CN=C(N(C(=O)Nc2ccccc2)c2ccccc2F)S1	-0.59
Cn1c(COc2ccc3ccccc3c2)nnc1SCC(=O)O	0
N#Cc1nc(Cc2cccc3ccccc23)oc1NCCN1CCOCC1	0.68
CCCC(=O)Nc1nnc(SCC(=O)N2C(C)CCCC2C)s1 (stereo not drawn)	-0.26
Cc1ccc(-c2nc3sc4c(c3c(=O)n2N)CCCC4)cc1	1.29
O=C(c1cc(-c2ccc(Cl)s2)nc2ccccc12)N1CCCC1	-1.1
Nc1nc(CN2CCN(Cc3ccccc3)CC2)nc(Nc2ccc3c(c2)OCCO3)n1	0.01
O=C(NC1CCCCCC1)c1ccccc1-c1ccccc1	-0.89
C[N+](C)(C)CCN(Cc1ccc(Cl)cc1)c1ccccn1	0.77
Cc1ccc(Cn2ccc(=O)c(Cc3c(Cl)cccc3Cl)c2C)cc1	-1.54
O=C(c1cnccn1)N(Cc1ccco1)C1(C(=O)NC2CCCC2)CCCCC1	0
COc1ccc(NC(=O)Cn2c(NCC(C)O)nc3ccccc32)cc1Cl (stereo not drawn)	-0.41
COc1ccc(NC(=O)CCSc2cc(C)c3ccccc3n2)cc1	-1.46
COc1ccccc1C(=O)NCCOc1ccc(C(C)(C)C)cc1	0.04
N#Cc1c(F)cccc1NCc1cccs1	-0.62
COc1ccc(C(=O)Nc2c(O)ccc3ccccc23)cc1OC	-1.1
CC(=C/c1ccccc1)/C=N/Nc1nc(N2CCOCC2)nc(N2CCOCC2)n1	1.31
CCN1CCN(C(c2ccccc2F)c2nnnn2Cc2ccc3c(c2)OCO3)CC1 (stereo not drawn)	-0.02
Cc1cc(C)nc(N2CCN(CC(=O)NCc3ccccc3)CC2)n1	0.41
O=[N+]([O-])c1cc(/C=N/NC(=S)Nc2ccccc2Cl)ccc1Cl	-1.5
O=C(Nc1ccccc1O)c1ccc(C(=O)c2ccccc2)o1	-0.49
Cc1cc(C=O)c(C)n1-c1cc(C(F)(F)F)ccc1N1CCOCC1	-0.69
COc1cc(NC(=O)c2cc(-c3ccc(C)cc3)on2)cc(OC)c1OC	0
CC(C)(C)NC(=O)COC(=O)c1ccc(NC(=O)CC#N)cc1	2.88
CCn1ccc(C(=O)Nc2ccc(S(=O)(=O)Nc3ccccc3OC)cc2)n1	-0.7
CNc1ncc(C(=O)C(C)(C)C)s1	-0.92
CC(C)CNC(=O)COC(=O)c1ccc(Cl)c(S(=O)(=O)N2CCc3ccccc32)c1	-1.07

# New compounds follow:
SMILES	Kir21 inh
O=C(N/C(=C/c1cccs1)C(=O)N1CCCCCC1)c1ccccc1	-0.24
CC(NC(=O)c1ccncc1)c1ccc(Cl)cc1Cl (stereo not drawn)	0.47
COCCN(C(=O)COc1ccccc1)c1nnc(-c2cccnc2)s1	-0.83
O=S(=O)(CCN1C=CC(C(F)(F)F)=NCC1)c1ccc(F)cc1	1.05
CCOC(=O)C1CCN(C2CC(=O)N(c3cccc(Cl)c3)C2=O)CC1 (stereo not drawn)	0.64
CCCCn1c(SCC(=O)Nc2cc(C)on2)nc2ccccc2c1=O	-2.81
CC(C)Oc1ccc(C2CC(=O)N(c3ccc(N(C)C)cc3)C2=O)cc1 (stereo not drawn)	2.15
O=C(NCc1cc(C(F)(F)F)cc(C(F)(F)F)c1)C12CN(Cc3ccccc3)CC1C(c1cccc([N+](=O)[O-])c1)=NO2 (stereo not drawn)	0.06
Cc1noc(C)c1C(=O)Nc1nc(-c2ccc([N+](=O)[O-])cc2)cs1	1.12
CCN(CC)C(=O)CSc1nc2nc(C)cc(C)c2c(=O)[nH]1	0.6
O=C(/C=C/c1cccc([N+](=O)[O-])c1)NCCc1ccc(F)cc1	-0.11
Cc1cc(=O)[nH]c(SCC(=O)O)c1C#N	0.77
CC(=O)Nc1ccc(/C=N/NC(=O)c2cccc(S(=O)(=O)N3CCOCC3)c2)cc1	-0.27
C=CCn1c(COc2ccc(OC)cc2)nc2ccccc21	1.63
Clc1ccc(-n2nnc(-c3cccnc3)n2)cc1Cl	0.86
CSc1ncc(Cl)c(C(=O)Nc2cccnc2)n1	0.34
COCCNC(=O)/C(C#N)=C/c1ccc(O)c([N+](=O)[O-])c1	0.6
CC(C)[C@H](NC(=O)c1ccco1)C(=O)OCC(=O)c1ccc2c(c1)NC(=O)CO2	-1.2
CS(=O)(=O)NCCCc1ccccc1	0.06
Cc1ccc(S(=O)(=O)NC(CN2CCOCC2)=NCCNS(=O)(=O)c2ccccc2)cc1	-0.22
COCc1cc(Sc2ccc(Br)cc2)nc(-c2ccccc2)n1	-1.06
O=C(O)C1SCCN1S(=O)(=O)c1ccc2ccccc2c1 (stereo not drawn)	-0.11
CCCOc1ccc(N2CC(C(=O)Nc3ccccc3C(=O)NCc3ccco3)CC2=O)cc1 (stereo not drawn)	-1.69
CCOc1ccc(CCNC(=O)CCc2nnc3ccc(N4CCOCC4)nn23)cc1OCC	-0.67
O=S(=O)(Nc1ccncc1Cl)c1cccc(Cl)c1Cl	-1.05
Cc1ccc(Cc2cnc(NC(=O)/C(C#N)=C/c3ccc(-c4ccccc4[N+](=O)[O-])o3)s2)cc1	0.33
CCOC(=O)N1CCN(c2c(NCCCOC(C)C)c(=O)c2=O)CC1	-1.03
Cc1nc(C)c(C(=O)Nc2ncc([N+](=O)[O-])s2)o1	-0.88
Cc1nn(-c2ccccc2)c(OC(=O)c2cccs2)c1S(=O)(=O)c1ccccc1	1.16
Cc1nc(SCC(=O)NC2CCCC2)[nH]c(=O)c1C	-1.16

# (continued)
SMILES | Kir21 inh
Cc1ccccc1S(=O)(=O)Cc1ccc(C(=O)NC2CCC(C)CC2)o1 (stereo not drawn) | -0.03
Cc1nc2c(C)cccn2c(=O)c1NC(=O)c1ccco1 | -1.26
CC(C)OC(=O)C1CC=CCC1C(=O)Nc1ccc(Cl)cc1 (stereo not drawn) | -0.69
CCCCc1nnc(NC(=O)c2ccc(N3CCCC3=O)cc2)s1 | 0.99
Cc1cc(C)c(N(CC(=O)NCc2ccccc2)C(=O)c2csnn2)c(C)c1 | -1.14
Cc1cc(=O)oc2cc(OCC(=O)NCCCN3CCCC3=O)ccc12 | 1.1
COc1cccc(OC)c1C(=O)Nc1ccc(S(=O)(=O)N2CCCCC2)cc1 | -0.76
CCOC(=O)N1CCN(C(=O)c2ccc(S(=O)(=O)c3ccc(C)cc3)c(NC(C)=O)c2)CC1 | -0.11
O=C1C(=O)N(CC(=O)N2CCCC2)c2ccccc21 | -0.8
CC(C)Sc1nc2c([nH]1)c(=N)ncn2Cc1ccccc1 | 0.31

# The results go on:
SMILES | Kir21 inh
O=C1NN=C(c2ccccc2)CC1c1c[nH]c2ccccc12 (stereo not drawn) | -0.06
c1ccc2sc(NN=C3CCCCCC3)nc2c1 | -0.6
O=C(CN1CCN(S(=O)(=O)c2ccccc2)CC1)Nc1ccccc1C(=O)c1ccccc1 | -0.3
CC(=O)N1CCCN(C(=O)c2ccc3nc(Cc4ccccc4F)oc3c2)CC1 | -0.75
COc1ccc(-n2nc([N+](=O)[O-])c(=NCc3ccc4c(c3)OCO4)n2O)cc1 | -1.58
CCOc1ccc(CCNC(=O)/C=C/c2ccco2)cc1OCC | -0.75
N=c1c2c(ncn1CCCO)Oc1cc(O)ccc1C2c1ccccc1 (stereo not drawn) | 0.1
CCOC(=O)c1sc2nc(SCC#N)n(CC3CCCO3)c(=O)c2c1C (stereo not drawn) | -0.92
CC(C)N1CCN(CC#Cc2ccccc2)CC1CCO (stereo not drawn) | 0.28
NC(=O)c1ccc(CN2CCc3ccccc3C2)cc1 | 1.11

# Continued.
SMILES | Kir21 inh
COc1ccc(NC(=O)c2ccc(-c3ccccc3C(F)(F)F)o2)cc1 | -0.1
O=C(NCc1cccnc1)c1ccc2c(c1)OCO2 | 0.93
CCc1cc2c(NC(C(=O)O)C(C)C)ncnc2s1 (stereo not drawn) | -1.09
Cc1ccc(S(=O)(=O)NCCc2cc3ccc(C)cc3[nH]c2=O)cc1 | -1.13
CCCn1c(NC(=O)c2ccco2)nc2ccccc21 | -0.45
CCS(=O)(=O)c1ccc(NC(=O)c2ccccc2Cl)c(O)c1 | -0.81
O=C(c1cc(Cl)nc2ccccc12)N(Cc1nnc(-c2ccc(Cl)cc2)o1)C1CC1 | 1.11
CC(C)(C)CN1CCN(Cc2c[nH]c3ccccc23)CC1CCO (stereo not drawn) | -0.44
O=[N+]([O-])c1ccc(NC(=S)N2CCOCC2)cc1 | 0.92
O=C(NCCc1ccccc1)c1ccc(CS(=O)Cc2ccc(Cl)cc2)o1 (stereo not drawn) | 0.01

# 5 entries picked at random from the list so far:
SMILES | Kir21 inh
CNc1ncc(C(=O)C(C)(C)C)s1 | -0.92
CC(=O)N1CCCN(C(=O)c2ccc3nc(Cc4ccccc4F)oc3c2)CC1 | -0.75
O=C(Nc1ccccc1O)c1ccc(C(=O)c2ccccc2)o1 | -0.49
Cc1ccc(Nc2nc(NCCO)nc3c2cnn3C)cc1Cl | -0.98
Cc1noc(C)c1C(=O)Nc1nc(-c2ccc([N+](=O)[O-])cc2)cs1 | 1.12

# Returning to the listing; the 2 compounds before the break are reprinted first.
SMILES | Kir21 inh
O=[N+]([O-])c1ccc(NC(=S)N2CCOCC2)cc1 | 0.92
O=C(NCCc1ccccc1)c1ccc(CS(=O)Cc2ccc(Cl)cc2)o1 (stereo not drawn) | 0.01
CC(=O)c1ccc(S(=O)(=O)N(C)CCCC(=O)N(C)Cc2ccccc2F)cc1 | -1.3
COCCCNC(=O)c1ccc(CS(=O)(=O)c2ccccc2OC)o1 | -0.15
O=C(COC(=O)c1ccccc1NS(=O)(=O)c1cccs1)NCC12CC3CC(CC(C3)C1)C2 | 0.69
Cc1nc2ncnn2c(C)c1Cc1c(Cl)cccc1Cl | -1.05
COc1ccc(/C=N/NC(=O)CNC(=O)c2ccc3c(c2)OCCO3)cc1OC | 1.52
COc1ccc(S(=O)(=O)N(CC(=O)Nc2cc(C)on2)Cc2ccccc2)cc1 | 0.64
O=C(NNc1c(Cl)cccc1Cl)c1cccs1 | -0.89
CN1CCN(CCOc2ccc(Cc3ccccc3)cc2)CC1 | -1.08
Cc1ccc(NC(=O)CCCCCCCCCCC2COCCO2)c(C)c1 (stereo not drawn) | -0.74
COc1ccc(-c2oc3ccc(-c4ccc5c(c4)OCO5)cc3c2C#CC2(O)CCCCC2)cc1 | 0.28
Fc1ccc(F)c(C2=NNC(=NCC3CCCO3)SC2)c1 (stereo not drawn) | 2.18

# Source: PubChem BioAssay (Johns Hopkins Ion Channel Center)

# The list is partial, and most or all hits are left out here.
